BJeLR viability: BJeLR cell viability loss, primary screen, luminescence, CellTiterGlo ATP | hit rate 0.64% among 30,000 | BJeLR fibroblasts viability, 48 h; HRASV12, hTERT and SV40 LT/ST transformed | viability loss activity score, % (no concentration beside the values) | AID 2275, 2010; in the data active = viability loss activity score above about 50%; about a fifth of its hits are not listed in these tables;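 note: higher score means fewer live cells and less ATP luminescence; stock transfer was 50 or 100 nL into about 30 µL; 0% = vehicle wells and 100% = a reference killing control; one replicate is shown; the record names a cut of 85%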
A1 inh: inducers of caspase activity in MEF A1-2A-BIM cells, primary screen, A1 inhibitor project, cell-based, CaspaseGlo luminescence | caspase-Glo luminescence, 3 h; percent of clofoctol signal, DMSO as zero | caspase activation, % (test concentration not listed) | hit rate 0.51% among 21,000;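 active = most replicate scores above 10, or exactly half above 10 with mean activity above 10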;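 note: effector caspase 3 and 7 activity cleaving a DEVD luciferin substrate; 50 nL library stock added to about 30 µL; numbers are from one replicate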
* = called active by the depositor; x = not tested or not shown. An excerpt; the hit share may differ from the screen's.

SMILES | BJeLR viability | A1 inh
Cc1ccc2nc(NCCN3CCOCC3)c3nncn3c2c1 | -3.4 | x
C[C@@H]1CN([C@@H](C)CO)C(=O)c2cc(NS(=O)(=O)c3ccccc3)ccc2O[C@H]1CN(C)C(=O)Nc1cccc2ccccc12 | -1.0 | -0.6
CCNC(=O)CC1C(=O)N(c2ccccc2)C(=O)N1Cc1ccc(OC)cc1 (stereo not given) | -1.9 | x
NC(N)=Nc1nc2ccccc2o1 | 2.5 | -1.2
O=C(c1ccco1)N1CCN(C(=O)C2CCCc3c2[nH]c2ccc(Cl)cc32)CC1 (stereo not given) | 14 | 1.8
C[C@H]1CN([C@@H](C)CO)C(=O)c2cccc(NC(=O)Nc3cccc4ccccc34)c2O[C@H]1CN(C)S(=O)(=O)c1ccc(F)cc1 | -0.7 | x
CCN(C(=O)c1cc2c(=O)[nH]c3ccc(C)cc3c2s1)c1ccccc1 | 4.8 | -1.0
Cn1c(=O)cc(OCCCC(=O)NCC2(c3ccccc3)CCCC2)c2ccccc21 | 1.7 | x
CCC(C)NC(=O)C1CCN(S(=O)(=O)c2ccc3nc4c(c(C(=O)O)c3c2)CCCC4)CC1 (stereo not given) | 0.2 | 0.8
C[C@@H]1CN([C@H](C)CO)C(=O)c2cccc(NS(=O)(=O)c3ccccc3)c2O[C@@H]1CN(C)Cc1ccc(-c2ccccc2)cc1 | -1.7 | x
C[C@H](CO)N1C[C@H](C)[C@H](CN(C)CC2CCCCC2)Oc2c(NS(=O)(=O)c3cn(C)cn3)cccc2C1=O | 1.0 | x
CC(C)OC(=O)c1cccc(NC(=O)c2ccc(Br)cc2)c1 | 1.0 | -1.1
CCc1ccc(Nc2nc(-c3cc4ccccc4oc3=O)cs2)cc1 | 9.8 | -1.0
CC(C)NC(=O)Nc1ccc2c(c1)C(=O)N([C@@H](C)CO)C[C@@H](C)[C@H](CN(C)CC1CCCCC1)O2 | -2.5 | -0.6
COc1cc(NC(=O)Cc2ccc(F)cc2)cc(S(=O)(=O)c2ccc(Cl)cc2)c1 | -2.2 | -0.1
O=C1C=CC(=O)C(c2ccc(Br)cc2)=C1 | 47 | x
C[C@@H]1CN([C@@H](C)CO)C(=O)c2cc(NC(=O)CCCN(C)C)ccc2O[C@H]1CN(C)S(=O)(=O)c1cccs1 | 1.1 | 0.0
COc1ccc(C2NNC(=S)S2)cc1 (stereo not given) | -0.9 | -4.6
C[C@@H]1CN([C@H](C)CO)C(=O)c2cccc(NS(=O)(=O)c3ccccc3)c2O[C@@H]1CN(C)Cc1ccc(Oc2ccccc2)cc1 | -1.3 | x
Cc1noc(C)c1S(=O)(=O)Nc1ccc2c(c1)C(=O)N([C@H](C)CO)C[C@@H](C)[C@H](CN(C)C(=O)Nc1cccc3ccccc13)O2 | 0.1 | 0.1
O=C(NC(=S)Nc1ccc(N2CCCCC2)cc1)c1ccccc1 | 1.6 | x
Cc1ccc(Cl)cc1N1CCN(CCCNC(=O)c2cc3c(C)nc4ccccc4c3o2)CC1 | 0.9 | x
Cc1ccc(S(=O)(=O)Nc2ccc3c(c2)C(=O)N([C@H](C)CO)C[C@H](C)[C@H](CN(C)Cc2ccc(C(=O)O)cc2)O3)cc1 | 2.0 | -0.2
Cc1[nH]c(=O)[nH]c(=O)c1S(=O)(=O)NCCOC12CC3CC(CC(C3)C1)C2 | 1.7 | 0.9
C[C@H]1CN([C@@H](C)CO)C(=O)c2cc(NC(=O)NC3CCCCC3)ccc2O[C@@H]1CN(C)S(C)(=O)=O | 2.3 | 0.3
C[C@H](CO)N1C[C@H](C)[C@H](CN(C)S(=O)(=O)c2ccccc2)Oc2ccc(NC(=O)Cc3cn(C)c4ccccc34)cc2C1=O | -1.9 | -0.2
O=c1c(-c2ccccc2)coc2cc(O)ccc12 | -4.0 | -4.4
O=C(NCC(c1cccnc1)N1CCOCC1)C1CCCCC1 (stereo not given) | 5.5 | x
CCN1/C(=C2\C(=O)N(c3ccccc3)N=C2C)C=Cc2ccccc21 | 1.0 | 0.8
O=C(NCC1COc2ccccc2O1)c1ccc(Cl)cc1 (stereo not given) | -3.2 | -1.5
Cc1ccc2nc(NC(=O)C3CCCN(S(=O)(=O)c4ccc5c(c4)oc(=O)n5C)C3)sc2c1 (stereo not given) | 1.2 | x
O=C1S/C(=C\c2ccc(N3CCOCC3)o2)C(=O)N1c1ccccc1 | 1.1 | -0.5
CC1CN(C2=NCCN2S(=O)(=O)c2cc(C(F)(F)F)cc(C(F)(F)F)c2)CC(C)O1 (stereo not given) | -2.2 | 0.6
Cc1ccc(S(=O)(=O)N(C)C[C@@H]2Oc3c(NC(=O)Nc4cccc5ccccc45)cccc3C(=O)N([C@H](C)CO)C[C@H]2C)cc1 | -7.7 | x
CC(C)NC(=O)N(C)C[C@H]1Oc2ccc(NS(=O)(=O)c3cccs3)cc2C(=O)N([C@@H](C)CO)C[C@@H]1C | -3.5 | 1.0
Cc1ccc(S(=O)(=O)Nc2ccc3c(c2)C(=O)N([C@H](C)CO)C[C@@H](C)[C@@H](CN(C)S(=O)(=O)c2cn(C)cn2)O3)cc1 | 0.4 | -0.8
Cc1noc(C)c1S(=O)(=O)N(C)C[C@H]1Oc2c(NS(=O)(=O)c3cn(C)cn3)cccc2C(=O)N([C@@H](C)CO)C[C@H]1C | 0.7 | x
C=CCSc1nccc(-c2sc3ccc(Cl)cc3c2C)n1 | -6.3 | -0.3
O=c1ncn(Cc2cccs2)cc1-c1ccccc1 | -7.0 | -0.2
COc1ccc(S(=O)(=O)N(C)C[C@H]2Oc3ccc(NC(=O)Nc4c(C)noc4C)cc3C(=O)N([C@@H](C)CO)C[C@H]2C)cc1 | 1.6 | -1.0
CC(C)(C)NC(=O)Cc1ccc(Br)cc1 | -1.1 | 0.5
Cc1noc(C)c1NC(=O)N(C)C[C@@H]1Oc2c(NS(=O)(=O)c3cn(C)cn3)cccc2C(=O)N([C@@H](C)CO)C[C@H]1C | 1.8 | x
Cc1noc(C)c1S(=O)(=O)Nc1ccc2c(c1)C(=O)N([C@H](C)CO)C[C@H](C)[C@H](CN(C)S(=O)(=O)c1ccccc1)O2 | -5.2 | 0.0
N#CC(C(=O)Nc1ccccc1)=C1CCCC1 | -0.6 | 1.0
CNC[C@@H]1Oc2c(NS(=O)(=O)c3c(C)noc3C)cccc2C(=O)N([C@@H](C)CO)C[C@@H]1C | 3.4 | x
COc1cc2c(cc1NC(=O)CC(C)(C)C)oc1ccccc12 | 8.7 | 1.2
COc1ccc(CNC(=O)CCSCc2ccc(C)cc2)cc1 | 0.8 | -0.1
CC(C)NC(=O)Nc1ccc2c(c1)C(=O)N([C@H](C)CO)C[C@H](C)[C@H](CN(C)CC1CCCCC1)O2 | 1.9 | -0.2
CC(C)NC(=O)Nc1cccc2c1O[C@H](CN(C)C(=O)NC(C)C)[C@H](C)CN([C@@H](C)CO)C2=O | -2.6 | x
CC(C)NC(=O)Nc1cccc2c1O[C@@H](CN(C)Cc1ccc3c(c1)OCO3)[C@@H](C)CN([C@@H](C)CO)C2=O | -9.5 | x
O=c1[nH]snc1N1CCCCC1 | 12 | 1.1
CCOc1ccc(OCc2ccc(C(=O)NC(C)C)o2)cc1 | 3.4 | x
C[C@@H]1CN([C@@H](C)CO)C(=O)c2cccc(NS(C)(=O)=O)c2O[C@H]1CN(C)S(=O)(=O)c1ccccc1 | -4.1 | x
COc1ccc(SC(=O)c2cc(C)n(Cc3c(Cl)cccc3Cl)n2)cc1 | -1.2 | 0.1
O=C1c2ccccc2NC(c2cccc(F)c2)N1Cc1ccccc1 (stereo not given) | 5.4 | 0.3
Cc1ccc(S(=O)(=O)Nc2ccc3c(c2)C(=O)N([C@@H](C)CO)C[C@H](C)[C@H](CN(C)S(=O)(=O)c2ccccc2)O3)cc1 | 3.4 | -0.1
C[C@H](CO)N1C[C@H](C)[C@H](CN(C)S(=O)(=O)c2ccccc2)Oc2c(NS(C)(=O)=O)cccc2C1=O | 3.4 | x
N#Cc1c(-c2ccc(Cl)cc2)[nH]c(SCc2ccccc2)nc1=S | 2.0 | -0.5
O=S(=O)(Cc1ccc(Cl)cc1)C1CCCCC1O (stereo not given) | -2.4 | 2.5
C[C@H]1CN([C@@H](C)CO)C(=O)c2cccc(NC(=O)C3CCOCC3)c2O[C@H]1CN(C)S(=O)(=O)c1ccccc1 | 0.9 | x

Sorted by heavy-atom count (highest first): some entries from above.
SMILES | BJeLR viability | A1 inh
C[C@H]1CN([C@@H](C)CO)C(=O)c2cc(NC(=O)NC3CCCCC3)ccc2O[C@@H]1CN(C)S(C)(=O)=O | 2.3 | 0.3
CCOc1ccc(OCc2ccc(C(=O)NC(C)C)o2)cc1 | 3.4 | x
O=c1c(-c2ccccc2)coc2cc(O)ccc12 | -4.0 | -4.4

The list goes on.
SMILES | BJeLR viability | A1 inh
C[C@H]1CN([C@@H](C)CO)C(=O)c2cc(NC(=O)Cc3cn(C)c4ccccc34)ccc2O[C@@H]1CN(C)Cc1ccncc1 | -1.4 | -0.1
O=C(c1cccc(C(F)(F)F)c1)N1CCc2c([nH]c3ccccc23)C1C(F)(F)F (stereo not given) | -1.6 | 0.0
CCOC(=O)c1cnc2c(OC)cccc2c1N1CCC2(CC1)OCCO2 | -4.5 | -0.6
O=C(O)c1ccc2c(c1)N(Cc1ccc(Cl)cc1)CCS2 | -2.0 | 0.4
COc1ccc2c(c1)C(=O)CC(c1ccccc1)O2 (stereo not given) | 0.5 | -0.1
C[C@H](CO)N1C[C@H](C)[C@H](CN(C)Cc2ccncc2)Oc2ccc(NC(=O)C3CCCCC3)cc2C1=O | 4.6 | 0.6
Nc1c(S(=O)(=O)c2ccccc2)sc2nc(-c3cccs3)cc(C(F)(F)F)c12 | -2.0 | -0.6
O=C1NC(c2ccccc2Cl)Nc2sc3c(c21)CCCC3 (stereo not given) | -4.7 | x
C/C=C(/C)C(=O)O[C@H]1C=C(C)C[C@H](OC(=O)c2ccc(O)cc2)C2[C@](O)(C(C)C)CC[C@@]21C (stereo not given in full) | -2.4 | 0.3
c1ccc2c(N3CCC4(CC3)OCCO4)nnc(Cc3ccncc3)c2c1 | 6.9 | -0.1
COc1ccc(CN(C)C[C@H]2Oc3c(NS(=O)(=O)c4cn(C)cn4)cccc3C(=O)N([C@H](C)CO)C[C@H]2C)cc1 | -1.0 | x
C[C@@H]1CN([C@H](C)CO)C(=O)c2cc(NC(=O)Nc3ccccc3)ccc2O[C@H]1CN(C)Cc1ccncc1 | 3.2 | -0.3
Cc1noc(C)c1NC(=O)N(C)C[C@@H]1Oc2c(NS(=O)(=O)c3c(C)noc3C)cccc2C(=O)N([C@H](C)CO)C[C@@H]1C | -3.0 | x
CC(C)Cc1c(O)nc(SCC(=O)NC(C)(C)C)[nH]c1=O | 2.4 | 1.0
O=C(NC1CCCc2ccccc21)c1cnn(-c2ccccc2)c1-n1cccc1 (stereo not given) | -8.3 | 0.0
COC(=O)c1ccccc1S(=O)(=O)/C(C#N)=C/Nc1nc(SC)nc(C2CC2)n1 | -1.0 | 0.5
O=C(Nc1cc(-c2ccc(Cl)cc2)[nH]n1)C1Cc2ccccc2C1 | -9.0 | -0.9
COc1ccc(-c2cc(=O)c3c(O)cc(O)c(-c4cc(-c5cc(=O)c6c(O)cc(O)cc6o5)ccc4OC)c3o2)cc1 | -5.1 | -0.1
CN(C)Cc1nc(-c2cn(C)c3ccccc23)no1 | -0.7 | -1.0
CC(=O)N1c2ccccc2C(C)(c2ccccc2)CC1(C)C (stereo not given) | 0.0 | -0.7
N#Cc1c(-c2ccccc2)cc(-c2ccccc2)nc1N | 2.1 | 0.8
Cc1ccc(S(=O)(=O)CC(c2ccccc2)N2CCOCC2)cc1 (stereo not given) | -2.8 | x
C[C@H]1CN([C@@H](C)CO)C(=O)c2cc(NC(=O)C3CC3)ccc2O[C@H]1CN(C)C(=O)Nc1ccc(C(F)(F)F)cc1 | -0.4 | 0.4
C[C@@H]1CN([C@H](C)CO)C(=O)c2cccc(NC(=O)NC3CCCCC3)c2O[C@H]1CN(C)Cc1ccc(Cl)c(Cl)c1 | -4.0 | x
CCc1ccc(N(CC)C(=O)c2cn(CC)c(=O)c3cc(OC)c(OC)cc23)cc1 | -2.6 | x
C[C@@H]1CN([C@H](C)CO)C(=O)c2cc(NS(=O)(=O)c3ccc(F)cc3)ccc2O[C@H]1CN(C)C(=O)Nc1ccccc1 | 4.1 | 0.2

Reformatted: five of the compounds above
mol	BJeLR viability	A1 inh
CCc1ccc(N(CC)C(=O)c2cn(CC)c(=O)c3cc(OC)c(OC)cc23)cc1	-2.6	x
C[C@H]1CN([C@@H](C)CO)C(=O)c2cc(NC(=O)C3CC3)ccc2O[C@H]1CN(C)C(=O)Nc1ccc(C(F)(F)F)cc1	-0.4	0.4
Cc1ccc(S(=O)(=O)CC(c2ccccc2)N2CCOCC2)cc1 (stereo not given)	-2.8	x
N#Cc1c(-c2ccccc2)cc(-c2ccccc2)nc1N	2.1	0.8
C[C@@H]1CN([C@H](C)CO)C(=O)c2cccc(NC(=O)NC3CCCCC3)c2O[C@H]1CN(C)Cc1ccc(Cl)c(Cl)c1	-4.0	x
